Screening data deposited in PubChem by National Center for Advancing Translational Sciences (NCATS).
TRPV1 potentiator = potentiators of human vanilloid receptor 1 (TRPV1); potentiation, % at 8.33 µM; TRPV1-expressing cells, Fluo-8 calcium influx, capsaicin EC20 potentiation; host cell line not named in the record; control for the full effect not named in the record; actives 0.02% (n = 320,000); AID 540277; active means potentiation above 80%; inconclusive means 30% to 80%; inactive means below 30%; further: 0% is about no effect
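Cells expressing TRPV1 were dye-loaded with Fluo-8 and read kinetically: 10 s baseline, 3 min after compound (agonist portion), then 2 min after EC20 capsaicin (allosteric enhancer portion). Calcium-bound dye fluorescence at 480/520 nm.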
CtBP-E1A blk = inhibitors of CtBP/E1A interaction. AlphaScreen GST-E1A/His-CtBP binding, 1536-well; active compounds read low; control for the full effect not named in the record. AID 651724. activity change, % (test concentration not listed). actives 0.49% (n = 340,000); in the data active means activity change below about -65%; inconclusive means about -30% to -65%; inactive means above about -30%; further: on the % scale 0 is the no-effect control and ±100 the full control effect
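Homogeneous bead-based format: GST-tagged E1A captured on glutathione donor beads, His-tagged CtBP on nickel acceptor beads; compounds precede bead addition by 2 h at 37 °C.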
Sfp PPTase inh = Sfp phosphopantetheinyl transferase inhibition; actives 3.5% (n = 310,000); Biochemical Sfp PPTase activity, qHTS; AID 1490; Potency, µM, for inactives: max response, negative = inhibition, actives largely listed as inhibitors; Q9F4F7; active means well fitted inhibition curve with a large enough effect; inconclusive means small, poorly fitted or top-dose-only effect, or another doubt; inactive means no such curve, though single readings can be large or run the other way;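 further: the enzyme is Sfp with the accession as filed and its product quenches rhodamine fluorescence; potency means the concentration at half of the fitted maximal effect; 0% = enzyme reaction without inhibitor and -100% = no enzyme wells; top concentration of the series not given in the record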
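Step 1, compound plus 15 nM Sfp-PPTase, 15 min, room temperature. Step 2, add rhodamine-CoA (5 uM) and BHQ-2-YbbR (12.5 uM). Step 3, read 525/598 nm fluorescence at 0 and 30 min.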
PINK1 expr mod = modulators of PINK1 expression. PINK1 immunofluorescence, high-content cytometry, 24 h. Potency, µM (titrated, usually from 76.6 µM), for inactives: at the top dose activation (PINK1 increase), usual class: activators. actives 0.2% (n = 410,000). AID 624263; active = well fitted activation curve with a large enough effect; inconclusive = small, poorly fitted or top-dose-only effect; inactive = flat fitted curve, though single readings scatter; cell line not stated here;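 further: potency means the concentration at half of the fitted maximal effect; % of control where 0% means no effect; nearly all actives have a fitted effect of over 65% in size; a mitochondrial uncoupler was the plate control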
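Compound titrations (5 concentrations, 24 h) on a stable cell line; DMSO and CCCP controls. Endpoint: fixed-cell PINK1 immunofluorescence with mitochondrial, cell and nuclear markers, scanned by microplate cytometer.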
D2 potentiator = positive allosteric modulators of human D2 dopamine receptor; P14416; DiscoveRx D2 beta-arrestin cells, luminescence, 90 min; 100% = 57 uM dopamine signal; potentiation, % (test concentration not listed); actives 0.23% (n = 360,000); active = potentiation of 50% or more; inconclusive = 30% to 50%; inactive = 30% or less;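 further: compound concentration not given in the record; tested on top of an EC20 dose of dopamine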
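PathHunter D2 cells, attached overnight at 37 deg C, received compound in DMSO plus dopamine at EC20 (50 nM final) for 90 min at 37 deg C. Beta-arrestin recruitment was read as luminescence after 1 h with detection reagent at ambient temperature.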
Six1-Eya2 inh = Six1/Eya2 interaction inhibition | Q15475+O00167 | AlphaScreen GST-Six1/His-Eya2 binding, biochemical; active compounds read low; control for the full effect not named in the record | activity change, % (concentration not given with the values) | actives 0.56% (n = 360,000) | AID 651725; in the data active = activity change below about -65%; inconclusive = about -30% to -65%; inactive = above about -30%; further: on the % scale 0 is the no-effect control and ±100 the full control effect
Target sequence (O00167 whole entry, looked up): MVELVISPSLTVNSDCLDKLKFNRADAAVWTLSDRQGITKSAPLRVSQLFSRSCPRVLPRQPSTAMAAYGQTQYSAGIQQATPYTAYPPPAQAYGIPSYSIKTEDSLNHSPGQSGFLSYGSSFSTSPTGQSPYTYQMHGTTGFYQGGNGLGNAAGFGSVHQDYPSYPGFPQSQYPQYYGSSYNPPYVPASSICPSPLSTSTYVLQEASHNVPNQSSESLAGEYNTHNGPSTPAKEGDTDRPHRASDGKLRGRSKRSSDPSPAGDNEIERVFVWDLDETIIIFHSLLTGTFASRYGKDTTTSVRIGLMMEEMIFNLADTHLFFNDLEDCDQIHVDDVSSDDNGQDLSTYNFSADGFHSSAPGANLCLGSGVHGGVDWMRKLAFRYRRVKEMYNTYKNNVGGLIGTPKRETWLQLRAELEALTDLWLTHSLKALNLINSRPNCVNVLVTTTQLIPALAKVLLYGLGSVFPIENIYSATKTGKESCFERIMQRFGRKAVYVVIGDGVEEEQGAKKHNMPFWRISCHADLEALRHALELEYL
Target sequence (Q15475 whole entry, looked up): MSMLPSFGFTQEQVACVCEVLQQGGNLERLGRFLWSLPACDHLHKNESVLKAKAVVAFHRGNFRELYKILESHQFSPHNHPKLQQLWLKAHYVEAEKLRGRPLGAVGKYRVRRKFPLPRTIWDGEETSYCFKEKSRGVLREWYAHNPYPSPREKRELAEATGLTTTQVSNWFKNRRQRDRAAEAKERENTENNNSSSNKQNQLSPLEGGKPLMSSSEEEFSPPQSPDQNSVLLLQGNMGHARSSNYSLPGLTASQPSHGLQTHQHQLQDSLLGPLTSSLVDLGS
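GST-Six1 + His-Eya2 (5X stock: 250/500 nM); Tris pH 8.0, 300 mM NaCl, 0.05% BSA, 0.02% Tween 20; GSH donor/Ni acceptor beads; 1 h 37 °C dark; AlphaScreen readout.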
D2 agonist = human D2 receptor agonism in beta-arrestin assay; P14416; DiscoveRx PathHunter D2 beta-arrestin, luminescence, 90 min; 100% = 57 uM dopamine signal; activation, % (concentration not given with the values); actives 0.084% (n = 360,000); AID 624465; in the data active = activation above about 40%; inconclusive = about 15% to 40%; inactive = below about 15%; further: compound concentration not given in the record; the text of the record calls up to 30% inactive
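Agonist mode: compounds alone added to overnight-plated D2 PathHunter cells for 90 min at 37 C, with 57 uM final dopamine (EC100) defining full response. Beta-arrestin recruitment detected by chemiluminescent reagent, read after 1 h at ambient temperature.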
Active calls of the source: *; ? = inconclusive; . = not tested or not shown; & = joins results of further samples; [ ] = dose if it differs, or a comment.

SMILES	TRPV1 potentiator	CtBP-E1A blk	Sfp PPTase inh	PINK1 expr mod	D2 potentiator	Six1-Eya2 inh	D2 agonist
O=C(N/N=C/c1ccc2cccnc2c1)c1ccco1	-6	-2	23%	-0.5%	-5	-17	-1.5
C=CCN(C(=O)Nc1ccccc1)C1CC(=O)N(c2ccc(OC)cc2)C1=O (centres undefined)	-7	2	1%	6.3%[38.3 µM]	-1	2	-1.7
COC[C@H]1CCCN1c1ccc2c(c1)O[C@H](COCc1ccccc1)CN([C@H](C)c1ccccc1)S2(=O)=O	.	-5	.	-0.1%	.	-10	.
CCOc1ccc2c(c1)-c1c(ssc1=S)C(C)(C)N2C(=O)c1ccco1	3	?	1%	7.7%	-37	?	-4.7
CCOC(=O)c1ccc2[nH]c3ccccc3c2c1	-21	0	-6%	2.6%	-28	3	-3.2
NC(=O)C1CCN(S(=O)(=O)c2cccc(S(=O)(=O)N3CCCCC3)c2)CC1	-11	8	5%	1.4%	5	1	-0.4
CC(C)=CC(=O)Nc1nc2ccc([N+](=O)[O-])cc2s1	17	-23	-5%	-1.8%	-6	1	-2.5
CC(=O)c1ccc2c3c(cccc13)C(=O)N(c1c(C)nn(C)c1C)C2=O	-6	5	-21%	2.5%	-3	5	-0.8
Fc1ccccc1Cn1nnc2c(NCCc3ccccn3)ncnc21	-27	3	11%	0.6%	-3	2	-1.4
COc1ccc(NC(=O)c2cc(CN3C(=O)c4ccccc4C3=O)ccc2OC)cn1	?	7	-24%	7.1%	-1	-2	-3.3
CCCn1nnnc1NC(=O)COc1ccc(Cl)cc1C	2	-11	12%	0.3%	3	-11	-0.9
CNC(=S)N(Cc1ccccc1)Cc1cccnc1	-11	-9	10%	0.1%	0	4	-3.6
O=C(O)Cn1cc(/C=C/[N+](=O)[O-])c2ccccc21	6	13	-13%	0.0%	-5	5	-7.9
CCCc1nc(SCC(=O)Nc2cc(C)on2)c2c(=O)n(C)c(=O)n(C)c2n1	.	-4	17%	0.8%	-3	3	-2.3
Cc1cc(C(=O)OCC(=O)c2ccc(Cl)c([N+](=O)[O-])c2)c2cccc(C)c2n1	-4	-1	4%	-1.0%	-26	-14	-4.5
COc1ccc(NC(=O)CSc2ncc(-c3ccc(F)cc3)n2Cc2ccco2)cc1	-16	-12	1%	-2.1%	-11	0	-2.1
COC(=O)c1ccc(S(=O)(=O)NCc2ccccn2)n1C	7	.	6%	2.0%	-17	6	-6.1
CN(c1ccccc1)S(=O)(=O)c1ccc2ccccc2c1	-3	19	-4%	5.3%	4	13	-1.0
Cc1cc(Cl)ccc1OCC(=O)NNC(=O)c1cccs1	.	-8	.	0.0%	-3	-7	-8.6
O=C(NCC1CCCO1)C1CC(=O)N(c2cccc(Cl)c2)C1 (centres undefined)	-3	-4	9%	-0.6%	-7	-2	1.5
OC(COCc1ccc(Cl)cc1)CN1CCN(c2ccccn2)CC1 (centres undefined)	11	-5	3%	0.6%	-1	-5	45*
O=C(CCc1nc(-c2ccc(Cl)cc2)no1)NC1CCCCC1	-19	7	4%	0.1%	8	-9	1.6
COC(=O)C[C@H](NC(=O)Cn1cnc2c(NCc3ccccc3)ncnc21)C(=O)OC	.	6	.	3.1%	3	2	-0.8
O=C(NCCN1CCCCC1)c1cccc2c1C(=O)c1ccc(N3CCCC3)cc1S2(=O)=O	.	-20	.	-0.1%	-33	10	-1.6
O=C1/C(=C/c2cccnc2)Oc2cc(OS(=O)(=O)c3ccccc3)ccc21	-13	-3	-24%	8.8%[38.3 µM]	9	-7	0.4
O=c1nc(/C=C/c2ccc(O)c(O)c2)oc2ccccc12	11	-16	4%	1.6%	0	-19	-2.1
COc1cc2nc(NCC3CCCO3)n3nc(-c4cccnc4)nc3c2cc1OC (centres undefined)	1	3	5%	?	-2	-2	-1.1
CC(C)C[C@@]12C(=O)N(c3cccc(Cl)c3)C(=O)N1[C@H](c1ccc(Cl)cc1)[C@@H]1C(=O)N(C3CCCCC3)C(=O)[C@@H]12	?	0	.	-0.6%	-10	1	-3.7
CC(C)COP(=O)(OCC(C)C)C(Nc1ccccc1)c1ccc2c(c1)OCO2 (centres undefined)	-21	0	19%	12%	0	-8	5.9
CCN(CC)CCN1C(=O)Cn2c(C)c(C)c3cccc1c32	-1&15	-17&-27	12%&-7%	-1.6%	-9&-21	-9&-28	-1.7&1.0

Whole records as entered above. Order of screens: TRPV1 potentiator | CtBP-E1A blk | Sfp PPTase inh | PINK1 expr mod | D2 potentiator | Six1-Eya2 inh | D2 agonist
COC(=O)C[C@H](NC(=O)Cn1cnc2c(NCc3ccccc3)ncnc21)C(=O)OC is listed as . | 6 | . | 3.1% | 3 | 2 | -0.8
O=C1/C(=C/c2cccnc2)Oc2cc(OS(=O)(=O)c3ccccc3)ccc21 is listed as -13 | -3 | -24% | 8.8%[38.3 µM] | 9 | -7 | 0.4

Next results follow:
SMILES	TRPV1 potentiator	CtBP-E1A blk	Sfp PPTase inh	PINK1 expr mod	D2 potentiator	Six1-Eya2 inh	D2 agonist
O=C(C1CCCO1)N(c1ccc(F)cc1)C1C=CS(=O)(=O)C1 (centres undefined)	1	-6	8%	2.2%	?	9	0.7
COc1ccc(CN(C)CC(=O)NC(=O)Nc2ccccc2F)cc1	22	.	.	0.1%	-11	0	0.4
Cc1ccc(C)c(OCC(=O)NCC(c2ccco2)N2CCCCC2)c1 (centres undefined)	-6	-13	.	2.2%	-22	-1	-3.9
CSc1cccc(NC(=O)CSc2nc3ccccc3o2)c1	.	9	-11%	.	-14	0	0.6
COc1cccc(CNC(=O)c2cccc(NC3=NC4CS(=O)(=O)CC4S3)c2)c1 (centres undefined)	-2	3	-2%	-1.8%	-2	-1	-1.2
CCn1c(SCC(=O)NCc2cccs2)nc2c1c(=O)n(C)c(=O)n2C	1	-8	9%	0.0%[38.3 µM]	-6	1	-3.3
COc1cc(NC(=O)c2sc3nc(C)nc(N4CCOCC4)c3c2C)cc(OC)c1OC	9	3	16%	5.0%	3	-4	-7.8
N=C1C(c2ccccc2)=C(O)CN1CCCO	10	4	19%	3.0%	-1	9	3.0
CCOc1ccc(C2=Nn3c(nnc3-c3ccccn3)SC2)cc1	.	?	?	12%	-8	?	-1.7
CNc1nc(-c2ccccc2)cc(C)c1S(C)(=O)=O	-9	88	2%	-0.8%	-11	52	-8.9
CC(C)(C)c1ccc(C(=O)NCc2nnc(SCC(=O)N3CCCC3)o2)cc1	.	3	.	2.1%	-6	-9	-1.6
COc1ccc(C(=O)Nc2ccc(NC(C)=O)cc2)cc1S(=O)(=O)N(C)Cc1ccccc1	3	-9	.	1.9%	-5	2	7.4
O=C(Nc1nnc(SCc2ccccn2)s1)C1CC(=O)N(c2ccccc2)C1 (centres undefined)	10	3	10%	4.6%	-4	-17	-2.6
CCCN(C(=O)c1ccc(OCC(C)C)cc1)c1c(N)n(Cc2ccccc2)c(=O)[nH]c1=O	-20	-3	.	21%	2	5	-0.4
COC(=O)CCCC1=CC2=CC(=O)C(C)(OC(=O)c3cccs3)C(=O)C2=CN1c1ccc(OC)cc1 (centres undefined)	?	-8	-3%&-10%	-0.5%	4	-10	4.5
COc1cc(OC)cc(C(=O)N[C@H](C(=O)OCC(N)=O)C(C)C)c1	6	16	6%	-0.1%	2	3	-1.6
COc1ccc(C(=O)Nc2cccc3c2C(=O)NC3=O)cc1S(=O)(=O)N1CCOCC1	21	2	1%	7.9%	1	14	-1.4
CCN(CC)CCOC(=O)c1ccc(NC(=O)C2(c3ccccc3)CCCC2)cc1	8	-4	3%	-0.3%	-12	-4	-2.6
CCn1cc(C(=O)OCc2ccc(F)cc2)c(=O)c2ccc(C)nc21	3	-15	-27%	1.5%[38.3 µM]	-15	-10	1.7
CC(=O)c1ccc(NC(=O)c2ccc3nc(-c4ccco4)c(-c4ccco4)nc3c2)cc1	14	-18	13µM*	2.2%	76*	?	13
COCCNC(=O)Cn1nc(-c2ccccc2OC)ccc1=O	20	7	15%	0.4%[38.3 µM]	4	-1	-0.7
O=C(C1COc2ccccc2O1)N1CCOCC1 (centres undefined)	10	0	0%	-2.7%	5	-9	-2.4
OC(c1cc(C(F)(F)F)nc2c(C(F)(F)F)cccc12)C1CCCCN1 (centres undefined)	-9	0	-29%	0.1%	7	39	7.9
COc1ccc(N2CCN(C3CCCN(C(=O)C4=C(C)OCCO4)C3)CC2)cc1 (centres undefined)	13	10	1%	1.4%	-27	-1	-1.2

Among those listed so far, 11 contain four or more nitrogen atoms:
SMILES	TRPV1 potentiator	CtBP-E1A blk	Sfp PPTase inh	PINK1 expr mod	D2 potentiator	Six1-Eya2 inh	D2 agonist
Fc1ccccc1Cn1nnc2c(NCCc3ccccn3)ncnc21	-27	3	11%	0.6%	-3	2	-1.4
CCCn1nnnc1NC(=O)COc1ccc(Cl)cc1C	2	-11	12%	0.3%	3	-11	-0.9
CCCc1nc(SCC(=O)Nc2cc(C)on2)c2c(=O)n(C)c(=O)n(C)c2n1	.	-4	17%	0.8%	-3	3	-2.3
COC(=O)C[C@H](NC(=O)Cn1cnc2c(NCc3ccccc3)ncnc21)C(=O)OC	.	6	.	3.1%	3	2	-0.8
COc1cc2nc(NCC3CCCO3)n3nc(-c4cccnc4)nc3c2cc1OC (centres undefined)	1	3	5%	?	-2	-2	-1.1
CCn1c(SCC(=O)NCc2cccs2)nc2c1c(=O)n(C)c(=O)n2C	1	-8	9%	0.0%[38.3 µM]	-6	1	-3.3
COc1cc(NC(=O)c2sc3nc(C)nc(N4CCOCC4)c3c2C)cc(OC)c1OC	9	3	16%	5.0%	3	-4	-7.8
CCOc1ccc(C2=Nn3c(nnc3-c3ccccn3)SC2)cc1	.	?	?	12%	-8	?	-1.7
CC(C)(C)c1ccc(C(=O)NCc2nnc(SCC(=O)N3CCCC3)o2)cc1	.	3	.	2.1%	-6	-9	-1.6
O=C(Nc1nnc(SCc2ccccn2)s1)C1CC(=O)N(c2ccccc2)C1 (centres undefined)	10	3	10%	4.6%	-4	-17	-2.6
CCCN(C(=O)c1ccc(OCC(C)C)cc1)c1c(N)n(Cc2ccccc2)c(=O)[nH]c1=O	-20	-3	.	21%	2	5	-0.4
